Compound activity (PubChem)
GIV Gai3 FP: GIV-Galpha-i interaction inhibition; AID 1224905; percent of control (FP), % (no concentration beside the values); Galpha-i3/FITC-GIV peptide fluorescence polarization, 90 min; hits give low values; scaled: aluminum fluoride 0%, vehicle 100%; actives 0.42% (n = 210,000); P08753;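 active = replicate mean at 85% of control or lower, very high polarization wells dropped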;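 also: wells of about 15 µL received 100 nL stock; the first replicate is given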
Target sequence (P08753 whole entry, looked up): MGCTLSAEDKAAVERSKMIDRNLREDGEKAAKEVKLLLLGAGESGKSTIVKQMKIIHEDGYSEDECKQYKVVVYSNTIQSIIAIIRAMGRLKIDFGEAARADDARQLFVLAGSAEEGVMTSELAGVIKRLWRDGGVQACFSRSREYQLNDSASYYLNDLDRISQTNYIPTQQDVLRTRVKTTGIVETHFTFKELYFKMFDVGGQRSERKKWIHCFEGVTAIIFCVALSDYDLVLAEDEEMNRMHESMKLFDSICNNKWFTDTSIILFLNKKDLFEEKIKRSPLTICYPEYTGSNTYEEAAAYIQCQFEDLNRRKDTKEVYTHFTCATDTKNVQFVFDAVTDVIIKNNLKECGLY
HCMV NEC inh: disrupts HCMV UL50-UL53 complex binding; inhibition, % (concentration not given with the values); actives 0.15% (n = 190,000); HTRF UL50-UL53 interaction, normalized percent inhibition; AID 1918969;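 active = both replicates at 50% or more, plus weaker picks with an unusually low signal ratio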;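 also: stock transfer was 100 nL into about 20 µL; 0% = negative control wells and 100% = wells with untagged competitor protein; inactives centre near -12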
Sa growth inh: S. aureus growth inhibition | S. aureus RN4220 growth, OD600, 20 h, 42 °C; hits give low values | actives 0.53% (n = 170,000) | AID 720641 | relative growth, % (concentration not given with the values);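 active = growth at 42 °C up to 50% and 20 or more points under that at 30 °C, or under 10% at both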;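 also: 300 nL library stock went into each well; scaled to the means of positive and negative controls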
Sa growth inh second temp: second read-out of Sa growth inh, no call of its own (marks repeat the call); relative growth, %; measured here: growth at 30 °C;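 optical density after 20 h as mean of two plates; 100% = untreated growth and lower means inhibition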
Numbers without * were called inactive; . = not tested or not shown. Random draw from the library; 0.82% or so of the library scored in one or more.

canonical_smiles | GIV Gai3 FP | Sa growth inh | HCMV NEC inh | Sa growth inh second temp
Cc1ccc(CNC(=O)c2cccc(C3CCCN(C(=O)NC(C)C)C3)c2)cc1 (stereo not drawn) | 105 | . | -7 | .
Cc1nc2sccn2c(=O)c1S(=O)(=O)N1CCC2(CC1)OCCO2 | 99 | 99 | -13 | 89
Cc1c(Cl)cccc1NC(=O)CC(c1ccc(F)cc1)N1Cc2ccccc2C1=O (stereo not drawn) | 97 | 107 | . | 84
COc1ccc(-c2cc(-c3nc4c5sc6nc(C)cc(C)c6c5ncn4n3)[nH]n2)cc1 | 102 | . | -11 | .
CCCCCCc1cc2cc(-c3csc(Nc4ccc(Cl)cc4Cl)n3)c(=O)oc2cc1O | 196 | . | -23 | .
COCCCNC(=O)c1oc2c(c1C)-c1nn(Cc3ccccc3Cl)cc1CC2 | 101 | 98 | -2 | 84
COc1ccccc1CCC(=O)Nc1ccc2c(c1)OCCCO2 | . | 99 | -18 | 84
CC(C)(C)c1ccc(C(=O)Nc2cc(-c3ccccc3)nn2-c2ccccc2)cc1 | 103 | 66 | . | 96
CC(NC(=O)COc1ccccc1)C1COc2ccccc2O1 (stereo not drawn) | 108 | 107 | . | 84
O=C(CCC(=O)c1ccc(Cl)cc1)OCc1ccc(F)cc1 | . | 83 | 4 | 95
O=C(Nc1cccc(C(=O)OCc2cc(=O)n3c4c(sc3n2)CCCC4)c1)c1ccc(Cl)cc1 | 97 | 97 | . | 86
CC1=NN(C(=O)c2cccc(O)c2)C(O)(c2ccc(Br)cc2)C1 (stereo not drawn) | 107 | . | -14 | .
COc1ccc(CNc2ncnc3c2oc2ccccc23)cc1OC | . | 109 | -26 | 105
CCCc1cc2c(=O)c(-c3ccc4c(c3)OCO4)c(C)oc2cc1OC(C)=O | 100 | 73 | . | 81
CCOC(=O)C12CNC(=O)C(C(=O)OCC)(CNC1=O)C2 | 103 | 85 | -24 | 84
CC1SC(c2ccc3c(c2)OCO3)N(c2nc3ccccc3s2)C1=O (stereo not drawn) | 106 | 116 | -4 | 105
CCc1ccccc1N(CC(N)=O)S(=O)(=O)c1ccccc1 | 99 | 99 | -5 | 100
COc1ccc(C(=O)Nc2cccc(OCc3cc(=O)n4c5c(sc4n3)CCCC5)c2)cc1 | 108 | 98 | -11 | 92
Cc1cccc(OCc2nc(C)c(C(=O)Nc3nc(-c4ccccc4)cs3)s2)c1 | 108 | . | -21 | .
Cc1nn(Cc2nnc(SCC(=O)c3ccc(Cl)cc3)o2)c(C)c1Br | 100 | 93 | -10 | 86
N#CCN(CC#N)C(=O)c1ccccc1 | . | 105 | -20 | 91
CCCC(=O)N(c1ccc2oc(C)c(C(=O)OC)c2c1)S(=O)(=O)c1ccc(Cl)cc1 | 106 | . | -10 | .
COc1cc(NC(C)=O)cc(OC)c1OC | . | 91 | -14 | 85
Cc1c(CNC(C)C23CC4CC(CC(C4)C2)C3)c(C(=O)O)c(C)n1Cc1ccccc1 (stereo not drawn) | 105 | 133 | . | 88
CN1C(=O)C(C)(C)c2cc(S(=O)(=O)N(C)Cc3ccco3)ccc21 | 104 | 89 | . | 84
COc1cccc(CC(Cc2nc3ccccc3[nH]2)c2nc3ccccc3[nH]2)c1 (stereo not drawn) | . | 64 | 8 | 65
N#Cc1ccc(OC(=O)c2cnccn2)cc1 | . | 93 | -38 | 91
CCC(Nc1ccccc1)C(=O)N/N=C/c1cccs1 (stereo not drawn) | 101 | 81 | -47 | 44
O=C(COC(=O)CC1SC(N2CCCC2)=NC1=O)Nc1ccc(Br)cc1 (stereo not drawn) | . | 106 | -30 | 93
Cc1cc(=O)n2[nH]c(CN(C(=O)C3CCCCC3)c3ccc(F)cc3)nc2n1 | 109 | . | 0 | .
CCn1nc(C)cc1/C(N)=N/OC(=O)c1ccc(C(C)(C)C)cc1 | 102 | 90 | -15 | 91
O=C1OC(c2cccc(F)c2)=N/C1=C\c1cccc2ccccc12 | 95 | 110 | . | 80
CCc1nn(CC(=O)NCCc2ccc(S(N)(=O)=O)cc2)c(=O)c2cc3occc3n12 | 100 | 108 | . | 89
COc1cc(C2CC(=O)N(c3ccccc3)C3=C2C(=O)OC3)cc(OC)c1OC (stereo not drawn) | 105 | 112 | 9 | 93
CCOc1c(Nc2cccc(OC)c2)c(=O)c1=O | 106 | . | -7 | .
Cc1ccc(-c2nc(N3CCC(C(N)=O)(N4CCCCC4)CC3)c3ccccc3n2)cc1 | 105 | . | -15 | .
Cc1ccc(/C=C/C(=O)OC(C)C(=O)c2cccc(Cl)c2)o1 (stereo not drawn) | . | 90 | -11 | 103
O=C(Nc1ccc(-n2ccc(C(F)(F)F)n2)cc1)c1cccs1 | 96 | 74 | -22 | 73
O=C(COC(=O)/C(=C/c1cccs1)c1cccs1)Nc1ccccc1 | . | 90 | -24 | 97
CCCn1c(CN2CCN(C)CC2)nc2cc(NC(C)=O)ccc21 | 108 | . | -19 | .
CN(CC(=O)Nc1ccccc1)CC(=O)Nc1ccc(F)cc1 | . | 92 | 21 | 93
Cc1ccc(N(Cc2cc3ccccc3[nH]c2=O)C(=O)c2cccc(Cl)c2)cc1 | 103 | 113 | -19 | 87
Cc1snnc1C(=O)Nc1c(C(C)(C)C)nn(C)c1C(C)(C)C | 101 | 93 | -16 | 84
Cc1[nH]c(C)c(S(=O)(=O)N(Cc2ccco2)C2CCCCC2)c1C(=O)N1CCCC1 | 100 | 99 | -1 | 90
CCCCC(=O)OCc1nc(N)nc(Nc2ccccc2C)n1 | . | 115 | -6 | 101
COc1ccc(NC2CC(C)Nc3ccc(OC)cc32)cc1 (stereo not drawn) | . | 105 | -12 | 84
O=C1CSC(c2ccc(Cl)cc2)N1O (stereo not drawn) | 103 | 103 | -27 | 83
CC(=O)Nc1ccc(NC(=O)CCSCCc2ccccn2)cc1 | 105 | 105 | . | 99
CCOc1ccc(NC(=O)CCOc2ccccc2)cc1 | 96 | 91 | . | 97
COc1ccc2c(c1OC)C(=O)N(c1ncn[nH]1)C2 | 103 | 100 | . | 81

Random excerpt: 4 records from the list, in no set order.
canonical_smiles | GIV Gai3 FP | Sa growth inh | HCMV NEC inh | Sa growth inh second temp
N#Cc1ccc(OC(=O)c2cnccn2)cc1 | . | 93 | -38 | 91
CCc1nn(CC(=O)NCCc2ccc(S(N)(=O)=O)cc2)c(=O)c2cc3occc3n12 | 100 | 108 | . | 89
COc1ccc2c(c1OC)C(=O)N(c1ncn[nH]1)C2 | 103 | 100 | . | 81
COc1ccc(NC2CC(C)Nc3ccc(OC)cc32)cc1 (stereo not drawn) | . | 105 | -12 | 84

The main list resumes with the 2 entries that preceded the break.
canonical_smiles | GIV Gai3 FP | Sa growth inh | HCMV NEC inh | Sa growth inh second temp
CCOc1ccc(NC(=O)CCOc2ccccc2)cc1 | 96 | 91 | . | 97
COc1ccc2c(c1OC)C(=O)N(c1ncn[nH]1)C2 | 103 | 100 | . | 81
CCOc1ccc(NC(=O)c2cc(S(=O)(=O)NC3CCCC3)ccc2F)cc1 | 103 | 116 | . | 86
Cc1ccccc1-n1c(=O)cc(NCC2CCCO2)[nH]c1=O (stereo not drawn) | 98 | 95 | 1 | 86
CCN(CC)c1ccc(NC(=O)c2oc3ccc4c(c3c2C)C(=O)CC(C)(C)O4)c(C)c1 | 110 | 79 | -29 | 48
O=C1Nc2cc3c(cc2Sc2ccccc21)OCCO3 | . | 86 | -28 | 87
O=C1c2cccc3cccc(c23)C(=O)N1CC1CCN(CC(O)COCC2COc3ccccc3O2)CC1 (stereo not drawn) | 100 | . | -139 | .
O=C(c1cc2c(Cl)ccc3c2n1CCO3)N1CCN(c2ccccc2F)CC1 | 97 | 101 | -29 | 89
CCCCC12CN3CC(C)(CN(C1)C3c1ccc(OCc3ccccc3)cc1)C2=O (stereo not drawn) | 97 | 96 | -18 | 86
Cc1c(C(=O)N2CCC(C(N)=O)(N3CCCCC3)CC2)sc2ncnc(N3CCCCC3C)c12 (stereo not drawn) | 100 | . | -26 | .
CN(C)c1ccc(CNC(=O)c2ccc(-n3nc(OCc4cccc(F)c4)ccc3=O)cc2)cc1 | 101 | . | -16 | .
COc1cc(Br)cc(C=Nc2ccccc2)c1O | 106 | . | -16 | .
CC(CC(=O)NN)C1(O)CCCCC1 (stereo not drawn) | 94 | 111 | -9 | 100
NC(=O)c1cc2ccccc2oc1=Nc1ccc(Br)cc1 | . | 85 | -3 | 98
CC(C)(C)C(=O)CSc1nncc2ccccc12 | . | 123 | -32 | 77
CCc1ncc(C(O)c2ccccc2)n1C (stereo not drawn) | 97 | 92 | -9 | 96
CCOc1ccccc1NC(=O)c1nn(-c2ccc(OC)cc2)c(=O)c2c1c1ccccc1n2C | 100 | 96 | -15 | 85
CC(=O)Nc1ccc(Nc2ncnc3c2cnn3Cc2ccc(Cl)cc2)cc1 | 101 | 125 | -18 | 85
O=C(O)C1CCCCN1Cc1cccc(F)c1 (stereo not drawn) | 105 | 87 | -12 | 84
COc1ccc(-c2cc(=O)n3c(nc4ccccc43)[nH]2)cc1 | 97 | . | -20 | .
O=c1cc(CSc2ccc(Cl)cc2)nc(N2CCN(Cc3ccc4c(c3)OCO4)CC2)[nH]1 | 105 | 116 | . | 99
Nc1c(C(=O)CCC(=O)O)oc2ccc(Cl)cc12 | 96 | . | -109 | .
Cc1ccc(C2C3=C(CC(C)(C)CC3=O)OC3=C2C(=O)CC(C)(C)C3)cc1 | . | 94 | -10 | 83
CC(=O)O/N=C(\N)COc1ccc(-c2nnco2)cc1 | 101 | 91 | -28 | 85
CN(C)S(=O)(=O)c1cc(C(=O)N2CCN(Cc3ccccc3)CC2)c(Cl)cc1Cl | 108 | 87 | 2 | 90
COc1ccccc1Nc1nc(N)nc(CN2CCC(C)CC2)n1 | 102 | 112 | . | 101
O=C(O)CSc1nnc(NC2CCCCC2)s1 | . | 77 | 0 | 91
CC(CN1CCCN(C)CC1)c1ccccc1 (stereo not drawn) | 109 | 101 | -3 | 73
COc1ccc(C(=O)c2cn(Cc3ccccc3F)c3cc4c(cc3c2=O)OCCO4)cc1OC | 96 | 93 | -41 | 79
c1ccc(Cn2c[n+](Cc3ccccc3)cn2)cc1 | . | 94 | -11 | 83
Cc1ccc2c(c1)C(c1ccccc1)N(C(=O)c1ccccc1F)CC(=O)N2 (stereo not drawn) | 103 | 81 | -1 | 99
CCOc1ccc(C(=O)Nc2cc(OC)c(OC)cc2C(=O)OC)cc1 | 102 | 129 | -9 | 99
N#Cc1cccc(NC(=O)C(F)(F)F)c1 | 97 | 106 | -7 | 56
CCOC(=O)c1sc(N2C(=O)C(=O)/C(=C(/O)c3ccc(OC)c(C)c3)C2c2ccccc2)nc1C (stereo not drawn) | . | 92 | -34 | 80
CC(=O)Nc1ccc(NC(=O)C(C)OC(=O)C2(c3ccc(F)cc3)CCCC2)cc1 (stereo not drawn) | . | 71 | 4 | 92
Cn1c(=O)c2c(nc(SCc3cc4c(cc3Cl)OCO4)n2C)n(C)c1=O | 106 | . | -33 | .
Cc1ccccc1Cn1c(CN2CCC(C(=O)NCCN(C)C)CC2)cc2ccccc21 | 110 | 135 | . | 102
CN(/C=C/C(=O)C(F)(F)F)c1ccccc1C(=O)O | . | 95 | 9 | 92
Cc1cc(C)cc(NS(=O)(=O)c2ccc3c(c2)NC(=O)C(C)S3)c1 (stereo not drawn) | 101 | 65 | . | 89
CCOc1ccccc1CNC(=O)c1ccc(-n2c(C)cc3c2CCC(C)C3)cc1 (stereo not drawn) | 109 | 110 | . | 104
Cc1cc(=O)n(Cc2c(F)cccc2Cl)c2c1c(C)nn2C | 99 | 88 | . | 88
Cc1ccc(/C(C#N)=C/c2ccc(N(C)C)cc2)cc1 | 108 | 112 | 22 | 104
Nc1ccc(-c2nc3ccc(-c4nc5ccccc5o4)cc3[nH]2)cc1 | 108 | 112 | -10 | 91
COC(=O)C1=C(C)NC2=C(C(=O)CCC2)C1c1ccc(OC)c(COc2c(F)c(F)c(F)c(F)c2F)c1 (stereo not drawn) | 95 | . | -18 | .
COc1ccc(NC(=O)N2CCC(c3nc4ccccc4[nH]3)CC2)cc1 | 102 | 99 | -17 | 90
COc1ccc(C(=O)CC2(O)C(=O)N(Cc3ccccc3)c3ccc(Br)cc32)cc1 (stereo not drawn) | 100 | 123 | -13 | 88
CC(C)Oc1ccc(C(=O)Nc2nonc2-c2ccc(OC(C)C)cc2)cc1 | 100 | 103 | -10 | 92
Cc1nccn1CCc1nc(N)nc(N)n1 | 98 | 85 | -1 | 89
Cc1cc(C)c2[nH]c(=O)c(CN(CCN3CCOCC3)C(=O)Nc3ccc(F)cc3)cc2c1 | 101 | 103 | -11 | 110
CCN(c1cccc(C)c1)S(=O)(=O)c1ccc2c(c1)N(C)CCO2 | 102 | 77 | -15 | 71
